Menin MLL FP FL = qHTS Assay for Inhibitors Targeting the Menin-MLL Interaction in MLL Related Leukemias: Competition With Fluorescein Labeled MLL-derived Peptide. Fluorescence polarization, fluorescein-MLL peptide displacement from menin. FP activity change, % at 61.4 µM. 290,000 tested, under 10 active; inconclusive = falling polarisation curve, or a change in total fluorescence; inactive = total fluorescence flat and polarisation flat or rising; no compound was filed as active; the % refers to the polarisation; negative = inhibition;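 note: % of control where 0% means no effect; inhibitors lower the polarisation; unlabelled MLL peptide was the positive control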
TRPML1 blocker = qHTS for Inhibitors of the Human Mucolipin Transient Receptor Potential 1 (TRPML1). TRPML1-inducible cells, Ca2+ dye fluorescence, FDSS; active compounds read low; inhibition of EC80 agonist-evoked calcium signal. 390,000 tested, 0.02% active. Mucolipin-1 (Homo sapiens), Q9GZU1. AID 624415, 2012. activity change, negative = inhibition, % (no concentration beside the values); in the data active means activity change below about -50%; inconclusive means about -30% to -50%; inactive means above about -30%;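 note: stimulus is agonist 54-4 at its EC80 concentration; % is set by controls: 0 for no effect and ±100 for the full control effect; compound concentration not given in the record; the text of the record puts the active cut at -80%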
Target sequence (Q9GZU1 whole entry, looked up): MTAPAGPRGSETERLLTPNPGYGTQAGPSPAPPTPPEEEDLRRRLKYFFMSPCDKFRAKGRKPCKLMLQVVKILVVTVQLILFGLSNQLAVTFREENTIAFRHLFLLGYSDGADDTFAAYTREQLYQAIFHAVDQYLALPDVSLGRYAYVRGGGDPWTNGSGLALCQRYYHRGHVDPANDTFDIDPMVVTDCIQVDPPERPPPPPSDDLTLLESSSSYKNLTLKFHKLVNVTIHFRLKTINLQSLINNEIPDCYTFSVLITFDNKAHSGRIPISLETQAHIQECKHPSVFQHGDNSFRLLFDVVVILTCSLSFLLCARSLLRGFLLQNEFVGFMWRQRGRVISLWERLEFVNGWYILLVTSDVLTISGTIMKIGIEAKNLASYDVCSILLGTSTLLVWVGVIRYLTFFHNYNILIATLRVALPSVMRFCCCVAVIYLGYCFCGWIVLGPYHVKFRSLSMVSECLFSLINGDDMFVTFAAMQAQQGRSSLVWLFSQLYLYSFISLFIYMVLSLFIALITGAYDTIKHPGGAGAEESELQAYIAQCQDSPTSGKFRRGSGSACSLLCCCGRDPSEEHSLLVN
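Calcium fluorescence in TRPML1-DL cells induced overnight with Tet: a 110 s read after compound pin addition, then a 110 s antagonist read after challenge with 54-4 at 4 uM final (EC80).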
gsp antagonist = qHTS for Antagonists of gsp, the Etiologic Mutation Responsible for Fibrous Dysplasia/McCune-Albright Syndrome: qHTS; gsp-mutant cells, cAMP HTRF, 30 min; control for the full effect not named in the record; Potency, µM (series often up to 76.9 µM), inactives show top-dose activity change, negative = inhibition, hits mostly inhibitors; 340,000 tested, 0.4% active; active = falling curve of any shape with a large fitted effect; inconclusive = falling curve, mostly with a smaller effect; inactive = flat or rising curve; cell line not stated here;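 note: intracellular cAMP measured with PDE inhibitor Ro 20-1724 present during compound exposure; potency is the fitted concentration of half-maximal effect; % is set by controls: 0 for no effect and ±100 for the full control effect; nearly all actives have a fitted effect of over 65% in size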
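Measurement of cellular cAMP by homogeneous time-resolved fluorescence following a 30 min compound exposure at 37C. The PDE inhibitor […] was present throughout; the assay buffer was DPBS with 0.05% BSA and 0.005% Tween 20.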
TRPML1 agonist = qHTS for Agonists of the Human Mucolipin Transient Receptor Potential 1 (TRPML1) | Mucolipin-1 (Homo sapiens), Q9GZU1 | TRPML1-expressing cells, Ca2+ dye fluorescence, FDSS; host cell line not named in the record; reference of the full effect not given here | activation, % (no concentration beside the values) | 410,000 tested, 0.12% active; in the data active = activation above about 50%; inconclusive = about 30% to 50%; inactive = below about 30%; note: 0% is about no effect; the text of the record puts the active cut at 80%
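Cells: TRPML1-DL, 1X Tet inducer, ~16 h at 37 degrees C/5% CO2. Dye: ABD Ca8 no-wash + quencher, 45-90 min RT. Read: 10 s baseline, compound add, 110 s agonist phase; 54-4 EC80 (4uM final), 110 s antagonist phase.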
ClpP mod = qHTS Assay for Activators of ClpP; ATP-dependent Clp protease proteolytic subunit (Bacillus subtilis (strain 168)), P80244; purified B. subtilis ClpP, FRET peptide cleavage, 20 min; Potency, µM (doses to about 57.5 µM), inactives show top-dose activity change, negative = active; 340,000 tested, 1.9% active; active = well fitted falling curve with a large enough effect; inconclusive = small, poorly fitted or top-dose-only effect; inactive = no such curve, though single readings can be large or run the other way; note: potency is the fitted concentration of half-maximal effect; the source files actives as falling curves though it sought activators and does not explain the sign; nearly all actives have a fitted effect of over 65% in size; many hits overshoot -100%
Target sequence (P80244 whole entry, looked up): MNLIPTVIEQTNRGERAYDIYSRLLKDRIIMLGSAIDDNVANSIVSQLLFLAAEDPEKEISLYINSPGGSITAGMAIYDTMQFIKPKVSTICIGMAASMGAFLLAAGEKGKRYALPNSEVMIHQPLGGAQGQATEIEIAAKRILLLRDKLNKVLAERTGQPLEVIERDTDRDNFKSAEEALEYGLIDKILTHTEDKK
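FRET quenching reversal measured ClpP activation: 10 microg/mL B. subtilis ClpP at pH 8 with the FRET-FV decapeptide, read at 430 nm after 320 nm excitation. The 20-min minus 0-min signal was scaled between DMSO/no-enzyme wells and ADEP (5.8 microM final).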
gsp ag = qHTS for Agonist of gsp, the Etiologic Mutation Responsible for Fibrous Dysplasia/McCune-Albright Syndrome: qHTS; gsp mutant cells, cAMP HTRF, 30 min; control for the full effect not named in the record; Potency, µM (doses to about 76.9 µM), inactives show at the highest dose activation (cAMP increase), hits mostly activators; 340,000 tested, 0.13% active; AID 624287, 2012; active = well fitted activation curve with a large enough effect; inconclusive = small, poorly fitted or top-dose-only effect, or another doubt; inactive = no such curve, though single readings can be large or run the other way; cell line not stated here;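 note: phosphodiesterase inhibitor Ro 20-1724 added with compounds to block cAMP breakdown; potency is the fitted concentration of half-maximal effect; nearly all actives have a fitted effect of over 60% in size; about a fifth of the inactives were tested at one dose only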
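Cells in DMEM/10% FBS with G418 were pretreated with compounds in DMSO plus […] (300 uM stock) for 30 min at 37C. cAMP was measured by HTRF (cAMP-d2 plus anti-cAMP antibody-K) after 30 min at room temperature.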
The depositor's hits bear a star; ? = inconclusive; . = not tested or not shown; [ ] = remark or other dose.

SMILES	Menin MLL FP FL	TRPML1 blocker	gsp antagonist	TRPML1 agonist	ClpP mod	gsp ag
Cc1cc2nc(C3CCN(C(=S)NCCCOC(C)C)CC3)[nH]c2cc1C	0.9	-9.3	3.7%	1.8	0.5%	4.2%
CN(C)S(=O)(=O)c1ccc(C(=O)NCC(C)(C)N2CCOCC2)cc1	5.2	-14.0	4.9%	-0.6	1.0%	2.6%
COc1ccc(C(=O)N/C(=C\c2cn(S(=O)(=O)N(C)C)c3ccccc23)C(=O)NCCCN2CCOCC2)cc1	3.2	-20.3	-1.9%	-0.8	-2.5%	0.0%
O=C(NC1CCCCC1)c1ccc(S(=O)(=O)N2CCOCC2)cc1	-0.4	2.6	1.6%	0.1	-0.5%	0.7%
COc1ccc(N2C(=O)C(CC(=O)Nc3ccccc3)N(Cc3ccccn3)C2=S)cc1 (configuration not stated)	-7.4	9.1	-5.5%	0.6	0.5%	11.4%[15.4 µM]
CCC(C)c1ccc(NC(=S)NCc2cccnc2)cc1 (configuration not stated)	4.7	3.2	-1.2%	0.0	-0.8%	?
Cc1cc(Br)c(NC(=O)CN2C(=O)NC3(CCOc4ccccc43)C2=O)c(Br)c1 (configuration not stated)	.	-0.4	.	0.2	-0.4%	-2.5%
O=C(Nc1ccc(Cl)cc1)Nc1cccc2nsnc12	8.5	19.1	39.8µM*	1.7	9.6%	5.3%
Nc1n[nH]c(C(F)(F)F)c1-c1ccccc1	9.0	5.5	8.3%	0.1	.	-15.4%
CCN1CCN(C(=O)c2ccc3c(c2)c(C)c(C)n3Cc2ccccc2)CC1	0.3	24.8	4.3%	1.3	4.2%	-2.2%[15.4 µM]
CCOc1ccc2[nH]c(=O)c(CN(CCN3CCCC3)C(=S)Nc3ccccc3OC)cc2c1	-1.7	21.4	-5.9%	0.7	.	4.2%[15.4 µM]
Cc1ccc(S(=O)(=O)N2[C@@H](c3ccc(F)cc3)C(C(=O)O)=C[C@H]2CC2CCCC2)cc1	.	-17.0	-14.5%	-0.1	-1.1%	.
c1ccc(Cc2noc(CN3CCN(Cc4ccc5c(c4)OCO5)CC3)n2)cc1	-8.4	-26.2	3.6%	-0.2	.	?
CNc1oc(-c2ccccc2Cl)nc1P(=O)(c1ccccc1)c1ccccc1	2.2	-3.6	-5.4%	0.2	-1.1%	-10.1%[15.4 µM]
O=C(Nc1ccc(Cl)cc1Cl)c1cc(S(=O)(=O)N2CCc3ccccc32)ccc1F	.	?	.	0.7	-4.5%	.
Cn1ncc(Cl)c1C(=O)Nc1cc(C(F)(F)F)ccc1F	-4.0	-2.2	3.1%	0.7	-3.6%	17.6%
CCOc1ccccc1C(=O)Nc1ccccc1C(N)=O	-1.3	-24.1	1.7%	2.6	-2.3%	-13.3%
CCOC(=O)c1c(S(=O)(=O)N2CCCC(C(=O)NCc3cccc(OC)c3)C2)c(C)n(C)c1C (configuration not stated)	.	-4.6	.	-0.7	-1.4%	.
CCOC(=O)C1CCN(S(=O)(=O)c2ccc3c(c2)N(C(C)=O)CC(C)S3)CC1 (configuration not stated)	.	-1.7	-8.2%	-1.5	2.2%	-12.3%
CCC1=Nc2cc(C(=O)NC3CCC(C)CC3)ccc2Sc2ccc(C)cc21 (configuration not stated)	.	7.9	.	0.2	0.2%	.
CCOc1ccc(N(CC)C(=O)Cc2c(C(=O)O)n(C)c3ccccc23)cc1	1.9	-23.2	-20.0%	-0.1	-0.3%	27.1%[15.4 µM]
Cc1ccccc1NC(=O)Cn1c(=O)n(C)c2ccccc21	3.3	0.2	1.2%	0.0	0.2%	-30.4%[inhibitor]
CCn1c(SCC(=O)O)nnc1-c1ccccc1	-1.6	33.2	3.3%	-0.7	0.5%	22.2%
CCc1ccc(-c2ccc(SCc3ccccn3)nn2)cc1	-1.7	15.4	-2.0%	1.9	.	21.2%
COc1ccc(OC)c(-c2c(=O)n(OCc3ccccc3Br)c3ccccc3[n+]2[O-])c1	1.5	2.0	0.6%	-0.1	-4.5%	4.6%
COc1cccc(-c2ccc3c(c2)O[C@@H](CN(C)C(=O)C2CCOCC2)[C@H](C)CN([C@H](C)CO)S3(=O)=O)c1	.	11.6	.	-0.6	4.5%	-56.1%[inhibitor]
Cc1cccc(N2CCN(S(=O)(=O)c3cc(C(=O)Nc4ccc(Oc5ccccc5)cc4)ccc3F)CC2C)c1 (configuration not stated)	.	8.5	.	0.4	-12.0%	.
COc1ccccc1COC(=O)CN1C(=O)NC2(CCCCC2C)C1=O (configuration not stated)	.	-0.8	9.2%	-0.8	.	11.1%[15.4 µM]
NC(=O)C1CCN(CC(=O)Nc2ccccc2Sc2ccc(Cl)cc2)CC1	2.6	?	1.0%	-0.4	0.7%	-2.8%[15.4 µM]
CCOc1cc(N2CCOCC2)c(OCC)cc1NC(=O)COC(=O)/C=C/c1ccc(OC(F)F)cc1	.	5.6	-12.2%	1.5	1.4%	-7.5%
CC(C)OCCCn1c(=S)[nH]c2cc3c(cc2c1=O)OCO3	-4.1	-1.5	-5.6%	0.8	0.1%	?
COc1cc2c(cc1OC)CN(C(=O)Cc1c(F)cccc1Cl)CC2	3.6	-6.1	-14.0%	-0.3	.	13.7%[15.4 µM]
CC(C)(C)NC(=O)NC(=O)COC(=O)c1ccc(OC(F)(F)F)cc1	5.7	29.2	14.5%	3.3	1.9%	-4.6%[15.4 µM]
COc1cccc(NC(=O)CN(C)CC(=O)Nc2ccc(Br)cc2)c1	-1.1	-9.8	8.3%	-0.5	-0.1%	5.3%[15.4 µM]
O=C(COC(=O)c1cc(=O)[nH]c2ccccc12)Nc1ccc(Cl)cn1	.	4.0	17.0%	-0.6	-7.7%	-13.6%
CC(C)c1ccc(NC(=O)c2ccc3c(c2)CCN3S(=O)(=O)c2ccccc2)cc1	.	25.7	.	0.6	-20.7%	.
O=P(Nc1ccccc1)(Nc1ccccc1)c1ccccc1	.	-11.5	7.3%	0.0	-25.4%	-43.7%[inhibitor]
COc1cc(OC)cc(C(=O)NCCn2ccc3ccccc32)c1	5.0	-9.2	-9.0%	0.2	-2.0%	-6.8%
COCCn1cnnc1SCC(=O)Nc1sccc1C(N)=O	5.8	8.1	-38.8%	-1.2	.	-9.1%[15.4 µM]
Cc1c(CCOC(=O)C23CC4CC(CC(C4)C2)C3)sc[n+]1CC#N	2.6	29.3	2.8%	0.4	.	2.2%[15.4 µM]
COc1ccc(NC(=O)Nc2cc3oc4ccccc4c3cc2OC)cc1	2.3	18.9	-34.3%	-0.1	-21.6%	-32.3%[inhibitor]
CC(NC(=O)C(=O)NN=C1CCC(C(C)(C)C)CC1)c1ccccc1 (configuration not stated)	1.1	24.5	?	1.7	-3.7%	6.4%
O=C(COc1ccccc1)Nc1cccc(-c2nc3cc4ccccc4cc3[nH]2)c1	3.1	-8.1	-2.8%	2.7	6.31µM*	?
c1ccc2c(c1)nc(N1CCOCC1)c1nnnn12	?	2.4	1.1%	0.0	-6.9%	12.5%
CCOC(=O)c1c(C)[nH]c(C(=O)COC(=O)CCC(=O)c2ccc3c(c2)OCCO3)c1C	6.3	31.2	28.2µM*	1.0	-2.5%	4.8%
COC(=O)Cn1c(=NC(=O)c2ccc(S(=O)(=O)N3CCc4ccccc4C3)cc2)sc2cc(OC)ccc21	11.4	-3.0	5.2%	-0.3	-22.7%	-15.8%
CC1=C(C(=O)OC2CCCCCCC2)C(c2ccc(O)cc2)NC(=O)N1 (configuration not stated)	4.7	2.0	-1.5%	0.6	-0.7%	-1.9%
O=C(Cn1cnc2scc(-c3ccccc3)c2c1=O)NCc1ccco1	9.0	-11.8	-10.0%	1.0	-0.1%	?
COc1cccc(C2CCCN2Cc2nc(-c3sccc3C)oc2C)c1 (configuration not stated)	7.6	-3.5	1.0%	0.0	-16.4%	-34.9%[inhibitor]
CC(C)c1ccc(NC(=O)c2cc(S(=O)(=O)NCCC3=CCCCC3)ccc2F)cc1	.	-1.1	.	1.0	-6.5%	.
COc1cccc(CNC(=O)c2ccc3c(c2)sc2nc(-c4cccc(OC)c4)cn23)c1	.	-8.3	.	0.6	4.4%	.
CCCCc1ccc(NC(=O)CSc2nc(=O)[nH]c3c2CCCC3)cc1	.	-9.1	.	0.8	-5.9%	.
CCC(CC)c1nnc(NC(=O)C2CCCO2)s1 (configuration not stated)	0.3	12.1	16.8%	0.2	.	-0.1%[15.4 µM]
COc1cccc(CN(C)C(=O)c2ccc3nccnc3c2)c1	0.1	9.2	3.3%	1.8	-1.5%	24.0%
O=C(Nc1cccc(N2C(=O)C3CCCCC3C2=O)c1)c1ccccc1 (configuration not stated)	.	15.9	-8.6%	-0.5	-0.4%	-35.0%[inhibitor]
CCc1nc2nc(C)c(NS(=O)(=O)c3ccc(F)cc3)c(=O)n2[nH]1	-12.9	-10.6	9.0%	1.0	.	-27.2%
Cc1cc(C)n(CC(=O)N/N=C/c2cc(Br)cc([N+](=O)[O-])c2O)n1	11.9	51.1	-11.6%	-0.9	2.0%	-9.8%
COc1ccc(CNC(=O)c2ccc3c(=O)n(-c4ccccc4)c(=O)[nH]c3c2)cc1	3.9	10.2	5.2%	-1.2	-1.1%	-1.0%[15.4 µM]
CCOC(=O)Cn1c(=O)oc2cc(S(=O)(=O)N3CCN(c4ccc(Cl)cc4)CC3)ccc21	.	-7.1	.	1.5	-8.5%	.
COc1ccc(NC2c3ccccc3C(=O)N2Cc2ccccc2Cl)cc1OC (configuration not stated)	0.4	.	-15.1%	.	-0.8%	-5.5%

Following part
SMILES	Menin MLL FP FL	TRPML1 blocker	gsp antagonist	TRPML1 agonist	ClpP mod	gsp ag
CCOC(=O)N1CCN(C(=O)c2cc3c(-c4cccc(OC)c4)nn(C)c3s2)CC1	0.8	14.5	-32.0%	2.7	.	1.5%[15.4 µM]
COc1cc(OC)c(NC(=O)C(C)n2c(=O)cc(-c3ccccc3)c3c(C)nn(C)c32)cc1Cl (configuration not stated)	.	37.5	.	1.5	31.6µM*	.
O=C(NNc1c(Cl)cc(Cl)cc1Cl)c1cccc([N+](=O)[O-])c1	6.4	-17.4	-12.0%	-1.7	1.1%	2.2%
CC(C)C(N)c1csc(Nc2ccc(C(=O)N(C)Cc3ccccc3)cn2)n1 (configuration not stated)	.	40.8	.	1.1	-8.1%	.
Cc1cc(C)nc(/N=C2\NC(=O)CC(C(=O)O)N2c2ccc(Oc3ccccc3)cc2)n1 (configuration not stated)	0.8	-1.2	-26.7%	-0.1	0.0%	-21.1%
CCC(CC)c1nnc(NC(=O)CN2C(=O)NC3(CCCC3)C2=O)s1	.	1.6	-19.4%	0.7	-0.6%	-30.6%
